miR-21 reporter: raises the signal of a miR-21 reporter. HeLa miR-21 FLuc reporter, luciferase, 48 h. AID 2288. Potency, µM (doses to about 38.3 µM), without a hit: at the top dose reporter change, positive = more light. 340,000 tested, under 10 active; active = well fitted rising curve with a large enough effect; inconclusive = small, poorly fitted or top-dose-only effect; inactive = no such curve, though single readings can be large or run the other way;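 further: % of control where 0% means no effect; miR-21 action dims this reporter so a rising signal means less miR-21 action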
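HeLa cells stably expressing CMV-driven firefly luciferase with a downstream miR-21 binding sequence, endogenously expressing miR-21, were treated with titrations (up to about 40uM final) for 48 hours at 37 degree Celsius. Luciferase luminescence was read after lysis.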
Rango-impB inh: inhibitors of Rango-importin beta complex formation; Q14974; Rango CFP/YFP FRET sensor + importin beta, 45 min; Potency, µM (titrated, usually from 92.2 µM), inactives show at the highest dose inhibition of complex formation; 0.031% of 340,000 active; AID 540263; active = rising FRET ratio curve, often small or poorly fitted; inconclusive = mostly compound fluorescence or quenching in the first reads; inactive = flat curves in all reads;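 further: potency means the concentration at half of the fitted maximal effect; 0% = DMSO wells and 100% = buffer wells lacking importin beta; nearly all actives have a fitted effect of over 15% in size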
Target sequence (Q14974 whole entry, looked up): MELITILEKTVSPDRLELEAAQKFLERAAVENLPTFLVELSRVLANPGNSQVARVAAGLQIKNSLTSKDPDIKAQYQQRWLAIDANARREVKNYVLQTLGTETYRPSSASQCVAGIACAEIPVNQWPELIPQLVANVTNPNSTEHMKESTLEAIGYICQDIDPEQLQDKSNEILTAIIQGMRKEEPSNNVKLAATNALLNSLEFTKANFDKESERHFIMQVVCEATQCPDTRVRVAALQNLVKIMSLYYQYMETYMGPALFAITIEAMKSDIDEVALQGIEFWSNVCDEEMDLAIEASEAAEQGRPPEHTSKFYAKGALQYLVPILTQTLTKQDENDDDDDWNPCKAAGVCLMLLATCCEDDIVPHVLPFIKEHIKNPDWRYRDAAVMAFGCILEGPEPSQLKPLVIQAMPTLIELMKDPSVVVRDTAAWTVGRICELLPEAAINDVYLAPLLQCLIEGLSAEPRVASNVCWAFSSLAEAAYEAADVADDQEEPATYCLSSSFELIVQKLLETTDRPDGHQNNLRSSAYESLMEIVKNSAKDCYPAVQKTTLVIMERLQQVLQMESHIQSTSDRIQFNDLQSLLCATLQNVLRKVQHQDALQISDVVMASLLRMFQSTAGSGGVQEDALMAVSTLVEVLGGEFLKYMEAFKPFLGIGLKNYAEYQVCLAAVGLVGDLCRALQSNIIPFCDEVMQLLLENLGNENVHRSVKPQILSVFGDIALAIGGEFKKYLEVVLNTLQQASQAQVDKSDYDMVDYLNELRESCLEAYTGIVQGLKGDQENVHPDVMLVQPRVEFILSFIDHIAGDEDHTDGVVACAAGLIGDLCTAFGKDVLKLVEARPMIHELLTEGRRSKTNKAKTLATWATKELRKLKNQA
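Inhibition scored from the CFP 486 nm/YFP 530 nm FRET ratio 45 min after adding 0.125 microM importin beta to 50 nM Rango biosensor preincubated 5 min with compound (room temperature, PBS with DTT, Tween-20, BSA). No-importin wells as positive control.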
GLA inh pH 4.5: blocks human alpha-galactosidase A at pH 4.5; 230,000 tested, under 10 active; P06280; purified enzyme, 4-MU-alpha-Gal fluorescence, pH 4.5; activity change, negative = inhibition, % at 105 µM; inconclusive = small, poorly fitted or top-dose-only inhibition, or a rising curve; inactive = flat fitted curve, though single readings scatter; no compound was filed as active;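 further: 0% = full activity with enzyme and -100% = basal without enzyme; dose as in the result columns while the protocol names 77 µM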
Rango dissoc inh: inhibition of RanGTP-driven Rango-importin beta dissociation. Biochemical FRET Rango-importin beta, RanGTP-induced dissociation. Potency, µM (series often up to 46.1 µM), for inactives: at the top dose activity change, negative = inhibition. 0.071% of 340,000 active. AID 540253; active means falling FRET ratio curve, often poorly fitted, with flat reads before Ran was added; inconclusive means other falling curves, or compound fluorescence or quenching; inactive means flat or rising ratio curve;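 further: potency means the concentration at half of the fitted maximal effect; % of control where 0% means no effect; nearly all actives have a fitted effect of over 45% in size; -100% = wells without RanGTP and RCC1; the record marks most hits as doubtful in a second field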
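FRET read at 45 min, room temperature: inhibitors block the CFP/YFP signal rise when RanGTP (0.6 uM Ran, 2 mM GTP, 0.2 uM RCC1) frees Rango (0.1 uM) from importin beta (0.25 uM). Pre-read after 5 min compound exposure flags interference.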
* marks the source's active call; other numbers are inactive results; ? = inconclusive; . = not tested or not shown; & = joins results of further samples. Some of the compounds tested, so the mix of outcomes need not match the whole.

Second line of a record: miR-21 reporter	Rango-impB inh	GLA inh pH 4.5	Rango dissoc inh
COc1cccc(NC(=O)c2ccccc2N2C(=O)C3C4C=CC(C5CC45)C3C2=O)c1 (stereo not given)
  1.0%	-0.2%	.	-7.2%
CC(C)c1ccc(NC(=O)COC(=O)C2=COCCO2)cc1
  -32.8%	0.7%	6.3	2.7%
O=C(CN1CCN(CN2C(=O)NC3(CCCCCC3)C2=O)CC1)Nc1ccc(F)cc1
  .	-0.3%	.	1.0%
CC(C(=O)O)c1n[nH]c(=O)c2ccccc12 (stereo not given)
  -5.3%	-0.5%	0.3	-1.5%
CCOC(=O)c1c(N=CN(C)C)c(C#N)c2n1CCCC2
  -15.4%	-2.5%	4.3	17.1%
CCOC(=O)c1cccc(NC(=O)CCS(=O)(=O)c2ccc(Br)s2)c1
  1.9%&-1.5%	-2.6%	-0.1	-10.3%
O=c1[nH]n(Cc2ccccc2)c2ccccc12
  -5.0%	0.3%	.	49.1%
CCn1c(SCC(=O)Nc2cc(C)on2)nc2c([nH]c3ccccc32)c1=O
  3.5%	-0.9%	.	-8.5%
O=C(NCC(=O)N1CCN(c2ccccn2)CC1)c1ccc(Br)o1
  -7.8%	0.0%	.	0.4%
NS(=O)(=O)c1ccc(CCNC(=O)CNS(=O)(=O)c2cccc(Br)c2)cc1
  -0.1%	1.4%	-1.7	33.5%
COc1ccc(C2C(C#N)=C(SCC(=O)Nc3ccc(C)cc3)NC3=C2C(=O)CC(C)(C)C3)cc1 (stereo not given)
  2.6%	0.7%	-6.4	1.1%
COc1ccc(-c2cc(=O)c3ccccc3o2)cc1
  -76.6%	1.6%	?	-4.2%
COc1ccc2cc(C(=O)NCCCN3CCCC3=O)[nH]c2c1
  -27.5%	0.1%	.	2.6%
CC1CN(C(=O)COC(=O)c2cc(Cl)ccc2Cl)CC(C)O1 (stereo not given)
  1.4%	0.9%	-3.4	-7.8%
COc1ccc(CN(C(=O)CSc2nnc(-c3c[nH]c4ccccc34)o2)c2ccc(F)cc2)cc1OC
  26.0%	-2.3%	-16.9	16.7%

Second line of a record: miR-21 reporter	Rango-impB inh	GLA inh pH 4.5	Rango dissoc inh
O=C(COc1ccc2c(c1)oc(=O)c1ccccc12)NCCCN1CCOCC1
  0.0%	2.1%	.	22.9%
COc1cccc2cc(-c3nc4ccccc4o3)c(=O)oc12
  -47.2%	5.1%	-3.2	0.1%
COc1cccc(CNC(=O)N2CCN(c3ccccc3C)CC2)c1
  -5.7%	2.1%	.	9.7%
CCN(CC(=O)Nc1ccc(NC(C)=O)cc1)Cc1c(O)ccc2cc(Br)ccc12
  -0.3%	0.9%	.	-12.0%
CC(=O)c1ccc(S(=O)(=O)N2CCN(C(=O)c3ccc(-n4nc(C)c(Cl)c4C)cc3)CC2)cc1
  .	4.2%	.	-13.3%
CCOc1ccc(NC(=O)c2cccc3c2C(=O)N(Cc2cccnc2)C3)cc1
  -22.1%	-5.3%	-20.0	17.4%
O=S(=O)(N/N=C\c1ccc2c(c1)OCO2)c1ccc(Cl)cc1
  -2.8%	-1.0%	7.6	-3.5%
COC(=O)c1cc(S(=O)(=O)N(C)c2ccc(C)c(C)c2)c[nH]1
  -0.9%	1.5%	.	3.8%
Cc1ccc(OCC(=O)N/N=C/c2ccco2)cc1
  -3.7%	0.1%	-2.4	0.5%
Cc1ccc(NS(=O)(=O)c2cc(NC(=O)c3ccc4c(c3)NC(=O)CS4)ccc2Cl)c(C)c1
  ?	0.3%	-11.5	?
Cc1ccc(S(=O)(=O)c2c(C)nn(-c3ccccc3)c2OC(=O)c2ccco2)cc1
  -5.0%	-3.1%	-0.8	2.7%
CN(C)/C=C(\C#N)C(=O)N/N=C(\CC(=O)C(F)(F)F)c1ccco1
  0.8%	0.1%	1.4	13.8%
COc1ccc(CN(C)C(=O)CCN2C(=O)c3ccccc3C2=O)c(OC)c1OC
  -3.1%	-1.1%	.	-2.3%
Cc1nn(-c2ccccc2)c2sc(C(=O)NNC(=O)COc3cccc4ccccc34)cc12
  -3.5%	?	-2.7	6.8%
O=C(CSc1ccccn1)C12CC3CC(CC(C3)C1)C2
  -3.1%	-0.4%	-1.3	-2.5%

Second line of a record: miR-21 reporter	Rango-impB inh	GLA inh pH 4.5	Rango dissoc inh
CC(C)Cc1nc(SCC(=O)N2CCCCC2)c2c(=O)n(C)c(=O)n(C)c2n1
  1.6%	0.0%	.	23.8%
C/C(=N\NC(=S)NC1CCCCC1)c1cccc(C(F)(F)F)c1
  -3.5%	3.0%	9.1	-13.1%
Cc1ccc(NC(=O)c2ccc(-n3cccn3)c([N+](=O)[O-])c2)cc1
  -5.4%	1.8%	-9.3	0.5%
Cc1cccc(NC(=O)CCCC(=O)OC(C)C(=O)c2ccccc2)c1 (stereo not given)
  -2.8%	-1.0%	.	-7.8%
COc1ccc(Nc2nc(C)nc3c2nnn3Cc2ccccc2Cl)c(OC)c1
  0.0%	-4.4%	.	0.2%
Cc1ccc(Cl)cc1NC(=O)Cn1cc(C(F)(F)F)cc(Cl)c1=O
  -0.4%	-1.5%	-14.8	-0.4%
CCN1CCN(C2CCCCC2NS(=O)(=O)c2ccc(Cl)cc2)CC1 (stereo not given)
  -7.9%	1.4%	.	0.7%
CC(C)Oc1cccc(NC(=O)c2cnccc2C(F)(F)F)c1
  3.2%	-0.8%	0.9	-12.7%
Cc1c(OC(C(=O)O)c2ccccc2)ccc2c1oc(=O)c1ccccc12 (stereo not given)
  -8.7%	0.6%	.	-13.6%
COc1ccccc1N(CC(O)Cn1ccnc1C)S(=O)(=O)c1ccccc1 (stereo not given)
  0.1%	0.9%	1.1	20.6%
O=C(NCC1CCCO1)NC12CC3CC(CC(C3)C1)C2 (stereo not given)
  -19.0%	-4.9%	-3.1	2.0%
O=C1N=c2ccccc2=C1c1[nH]c(=S)[nH]c1O
  -34.9%	-1.6%	.	-7.4%
NC(CCC(=O)O)C12CC3CC(CC(C3)C1)C2 (stereo not given)
  -3.2%	1.7%	5.5	0.6%
C=CCn1c(=N)c(C(=O)OCC)cc2c(=O)n3cc(C)ccc3nc21
  -12.2%	.	5.1	.
CC(C)(C)c1ccc(C(=O)NCC(=O)OCC(=O)N2CCN(S(=O)(=O)c3ccc(Cl)cc3)CC2)cc1
  .	-0.4%	.	-1.0%

Quoted from the listing:
`COc1ccccc1N(CC(O)Cn1ccnc1C)S(=O)(=O)c1ccccc1` (stereo not given) in miR-21 reporter reads 0.1%
`Cc1cccc(NC(=O)CCCC(=O)OC(C)C(=O)c2ccccc2)c1` (stereo not given) in Rango dissoc inh reads -7.8%

Further structures
Second line of a record: miR-21 reporter	Rango-impB inh	GLA inh pH 4.5	Rango dissoc inh
O=C(OCc1cc(Cl)ccc1OC(F)F)c1cc(S(=O)(=O)O)ccc1O
  0.6%	.	3.8	.
CCn1c(SCC(=O)Nc2nccs2)nnc1-c1ccc(S(=O)(=O)N2CCCCC2)cc1
  16.3%	-0.4%	-3.3	21.1%
Cc1ccc(CCNS(=O)(=O)c2ccc3c(c2)NC(=O)CCS3)cc1
  8.7%	3.9%	.	-10.8%
COc1cccc(N(C(=O)c2sc(C)nc2C)C(C(=O)NCC2CCCO2)c2ccccc2)c1 (stereo not given)
  -1.0%	0.2%	.	-2.3%
CNNC(=O)C(C)NC(=O)c1ccc(Br)cc1 (stereo not given)
  -3.2%	-1.7%	8.7	0.8%
CCc1nc2ccc(C(=O)Nc3ccc(NC(C)=O)cc3)cc2nc1CC
  -10.8%	0.1%	9.5	15.8%
CN(C)c1ccc(N2CC(C)(C)C2=O)cc1
  -24.7%	-4.6%	-16.1	9.8%
O=C(Nc1ccc(N2CCOCC2)cc1)c1cccc(S(=O)(=O)N2CCCC2)c1
  0.7%	2.7%	0.3	0.1%
C=CCN1C(=O)c2ccccc2Sc2ccc(C(=O)N3CCN(C)CC3)cc21
  -5.1%	1.1%	-0.7	3.8%
C[C@H]1CN([C@@H](C)CO)C(=O)c2cccc(NC(=O)C3CC3)c2O[C@H]1CN(C)Cc1ccc(-c2ccccc2)cc1
  .	?	.	6.7%
CCN(C(=S)NC(=O)CCc1ccccc1)c1ccccc1
  -10.1%	3.3%	-4.1	0.8%
O=S(=O)(c1ccc(S(=O)(=O)N2CCC(O)CC2)cc1)N1CCCC1
  -1.1%	-0.7%	.	-9.1%
COc1ccc(-n2nc(C(=O)NCC(=O)Nc3cc(OC)c(OC)c(OC)c3)c3ccccc3c2=O)cc1
  13.1%	-0.2%	.	-16.1%
COc1ccc(CNC(=O)Cn2nc([N+](=O)[O-])c(Br)c2C)cc1OC
  -13.4%	-1.2%	.	5.6%
CSCCC(NS(=O)(=O)c1cccc(C(F)(F)F)c1)C(=O)Nc1ccccc1N1CCCC1 (stereo not given)
  .	4.2%	.	-1.3%

Second line of a record: miR-21 reporter	Rango-impB inh	GLA inh pH 4.5	Rango dissoc inh
O=C(Nc1ccccc1)Oc1cccc(Br)c1
  -24.9%	1.1%	-15.0	28.0%
CCn1c(C(=O)NCc2ccccn2)cc2sccc21
  -11.0%	5.5%	3.9	-9.5%
COc1ccc(-c2nnn(CC(=O)N(CCO)C(C(=O)NC3CCCC3)c3ccncc3)n2)cc1 (stereo not given)
  -4.2%	-5.2%	7.0	?
O=C(CSc1nc2ccccc2[nH]1)Nc1ccc2[nH]c(=O)[nH]c2c1
  .	0.0%	.	10.8%
CC(C)(C)c1ccc(-c2noc(CCC(N)=O)n2)cc1
  ?	?	3.7	-9.5%
Cc1cc(NC(=O)C2CCCC2)nc2c1c(=O)oc1ccccc12
  2.6%	1.2%	-5.2	-2.9%
COc1ccc(NC(=O)/C(C#N)=C/c2c(C)nn(-c3ccc(F)cc3)c2Cl)cc1OC
  -4.7%	-1.8%	13.2	3.7%
CCn1cc(C2C3=C(CC(C)(C)CC3=O)N(c3ccccc3)C3=C2C(=O)CC(C)(C)C3)c(C)n1
  -0.7%	?	-0.1	-14.1%
Cc1cccc(N=N/C(=C\O)C(=O)c2ccc(Br)cc2)c1
  19.6%	2.8%	-11.9	4.2%
S=c1nc(C23CC4CC(CC(C4)C2)C3)nc2sccn12
  -1.6%	.	0.2	.
CCOC(=O)CSc1ccc2nnc(-c3cccnc3)n2n1
  -3.6%	-4.4%	-5.4	15.3%
COc1ccc(NC(=O)n2nc(OC(=O)c3cccs3)cc2N)cc1
  -54.8%	-1.7%	-5.3	-13.1%
COc1cccc(C(=O)Nc2cc(Cl)c(O)c(Cl)c2)c1
  -15.3%	-2.2%	0.8	0.9%
Cc1ccc(S(=O)(=O)N2CCCC2C(=O)Nc2ccc(O)cc2)cc1 (stereo not given)
  -16.0%	-2.8%	-5.2	-4.4%
Cc1ccc(-n2ncc(C(=O)Nc3cc(Cl)cc(Cl)c3)c2C2CCNCC2)cc1C
  ?	-2.8%	2.4	-5.3%

Second line of a record: miR-21 reporter	Rango-impB inh	GLA inh pH 4.5	Rango dissoc inh
Cc1cc(C(=O)N2CCCC(N3CCN(c4cccc(Cl)c4)CC3)C2)n(C)n1 (stereo not given)
  3.1%	1.2%	.	6.6%
Cc1csc(NC(=O)C(Cc2ccccc2)n2cccc2)n1 (stereo not given)
  -3.9%	3.6%	-13.5	-11.6%
Cc1cc(C)cc(N2CC(C)Cn3c2nc2c3c(=O)[nH]c(=O)n2C)c1 (stereo not given)
  -4.1%	1.1%	.	4.3%
COc1cccc(C(=O)Nc2cccc(C(=O)N3CCOCC3)c2)c1
  -10.8%	5.4%	-2.3	-9.7%
CC(Sc1nnnn1-c1ccc(O)cc1)c1nc2ccccc2c(=O)[nH]1 (stereo not given)
  0.2%	-2.1%	-8.3	-10.2%
O=C(Cn1nnc(-c2ccccc2)n1)N/N=C/c1cc([N+](=O)[O-])ccc1O
  -5.1%	3.6%	-2.3	-16.1%
CCCN(C(=O)CCSc1ccc(F)cc1)c1c(N)n(Cc2ccccc2)c(=O)[nH]c1=O
  -7.3%	-0.8%	.	-4.1%
CS(=O)(=O)c1ccc2nc(NC(=O)c3ccc(N4C(=O)CCC4=O)cc3)sc2c1
  -5.1%	-0.4%	-12.9	-9.4%
COC(=O)c1cc(-c2ccc(Br)cc2)c2c(=O)[nH]c(=O)n(C)c2n1
  -4.4%	0.0%	.	-15.9%
